Arbovirus inh: blocks arbovirus infection; arbovirus infection cell-based antiviral screen; inhibition, % at 10 µM; 0.37% of 200,000 active; AID 1251;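 active means inhibition from about 30%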;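 further: bluetongue infection of BSR cells; cell survival read as ATP light after 72 h; 0% = infected wells without compound and 100% = uninfected wells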
Mtb betalactam: beta-lactam sensitization of Mtb H37Rv. 0.27% of 330,000 active. AID 434955. M. tuberculosis H37Rv growth with meropenem, percent inhibition; hits of this screen are not shown here. inhibition, % at 25 µM;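 active means about 74% or more and at least 40 points above the plate without the antibiotic, then above 30% in a dose series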;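 further: growth measured after seven days incubation then overnight dye step; 0% = bacteria only wells and 100% = bacteria with antibiotic; twin plates without the antibiotic show which effects depend on it; some results filed as inactive read as strong as hits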
RecA intein inh: blocks M. tuberculosis RecA intein splicing. P9WHJ3. cell-free RecA intein splicing, fluorescence. 0.75% of 290,000 active. inhibition, %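 (about 9 µM by stock and volumes)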. AID 2221; in the data active means inhibition above about 30%;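 further: 0% = vehicle wells and 100% = reference inhibitor control wells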
Target sequence (P9WHJ3 whole entry, looked up): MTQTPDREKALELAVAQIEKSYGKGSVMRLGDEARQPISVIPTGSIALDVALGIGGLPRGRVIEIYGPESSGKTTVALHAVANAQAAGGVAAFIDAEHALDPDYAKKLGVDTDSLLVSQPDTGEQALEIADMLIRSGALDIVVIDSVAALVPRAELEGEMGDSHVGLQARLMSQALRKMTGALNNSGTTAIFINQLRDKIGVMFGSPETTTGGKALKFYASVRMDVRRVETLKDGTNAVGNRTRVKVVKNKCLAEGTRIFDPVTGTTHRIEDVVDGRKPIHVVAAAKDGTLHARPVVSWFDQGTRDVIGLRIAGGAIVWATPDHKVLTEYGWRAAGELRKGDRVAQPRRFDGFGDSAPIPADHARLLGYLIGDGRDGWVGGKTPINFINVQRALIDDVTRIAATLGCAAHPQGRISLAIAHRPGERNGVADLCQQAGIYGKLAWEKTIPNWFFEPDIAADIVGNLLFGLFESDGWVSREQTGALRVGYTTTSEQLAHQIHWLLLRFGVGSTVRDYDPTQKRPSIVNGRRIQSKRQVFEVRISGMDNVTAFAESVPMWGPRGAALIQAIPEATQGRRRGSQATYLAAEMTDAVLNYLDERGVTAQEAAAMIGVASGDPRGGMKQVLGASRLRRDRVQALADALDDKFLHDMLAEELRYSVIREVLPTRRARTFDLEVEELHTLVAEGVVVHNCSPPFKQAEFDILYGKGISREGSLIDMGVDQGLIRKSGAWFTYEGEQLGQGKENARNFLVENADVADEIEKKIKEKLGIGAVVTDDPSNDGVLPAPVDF
Mtb growth: M. tuberculosis H37Rv growth inhibitors, H37Rv strain (AID 1626) | M. tuberculosis H37Rv growth inhibition; higher % means a stronger effect | inhibition, % at 10 µM, or IC50 in µM where a hit was titrated | 0.95% of 220,000 active;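 active means confirmed in a dose series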;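 further: bacteria incubated seven days before Alamar blue readout; 0% = bacteria only wells and 100% = bacteria with antibiotic wells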
YopH inh: inhibitors of Yersinia enterocolitica YopH tyrosine phosphatase; fluorescence Ex485/Em525; inhibition, %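 (about 10 µM by stock and volumes)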; 0.16% of 140,000 active;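 active means inhibition of 50% or more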;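 further: controls were vehicle for no effect and minimum signal wells for full effect; inactives centre near -20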
The depositor's hits bear a star; nt = not tested or not shown.

Abbreviations – A = Arbovirus inh; B = Mtb betalactam; C = RecA intein inh; D = Mtb growth; E = YopH inh
mol: O=C(NCc1ccncc1)c1cccc(Cn2cc(Br)cn2)c1
  A: 3 | B: -2 | C: 1.1 | D: 4% | E: -38

mol: CCc1c(O)cc2n(c1=O)-c1ccc(Cl)cc1C2(C)C
  A: 3 | B: -2 | C: nt | D: -3% | E: 5

mol: O=C(c1ccccc1Cl)N1CCC(n2cccc2)CC1
  A: nt | B: -17 | C: -0.2 | D: 1% | E: nt

mol: COCCn1c(SCC(=O)Nc2ccccc2OC)nc2ccccc2c1=O
  A: nt | B: -8 | C: -2.1 | D: nt | E: nt

mol: COc1cccc(OCc2cc(C(=O)N(C)CCOc3ccc(C)cc3)no2)c1
  A: nt | B: 15 | C: 6.0 | D: nt | E: nt

mol: CCNC(=O)CC1SC(=Nc2ccc(C)cc2)N(CC)C1=O (centres undefined)
  A: 3 | B: 6 | C: 0.0 | D: 14% | E: -116

mol: CCCN(CCC)CCNC(=O)C1CCCN(S(=O)(=O)c2ccc3c(c2)oc(=O)n3C)C1 (centres undefined)
  A: 4 | B: -2 | C: -4.6 | D: 0% | E: -45

mol: CCN(CC)S(=O)(=O)c1ccc2[nH]c(=O)cc(C(=O)Nc3cccc(C(C)=O)c3)c2c1
  A: 7 | B: -1 | C: -0.6 | D: 5% | E: nt

mol: COC(=O)C1=C(C)NC2=C(C(=O)c3ccccc32)C1c1ccc(-c2ccc(C(=O)O)cc2)o1 (centres undefined)
  A: 24 | B: 93 | C: -4.0 | D: 13% | E: 7

mol: CCn1cc(S(=O)(=O)CC(=O)Nc2ccc3c(c2)OCO3)c2ccccc21
  A: nt | B: -3 | C: -1.1 | D: 1% | E: nt

(cont.)
Abbreviations – A = Arbovirus inh; B = Mtb betalactam; C = RecA intein inh; D = Mtb growth; E = YopH inh
mol: CCOC(=O)C1CCCN(CC(=O)Nc2cc(C)cc(C)c2)C1 (centres undefined)
  A: 4 | B: 1 | C: -3.8 | D: 5% | E: nt

mol: O=C1CCCC(c2ccccc2)N1 (centres undefined)
  A: -5 | B: -1 | C: 2.6 | D: 0% | E: -29

mol: COC(=O)c1c(-c2ccccc2)csc1NC(=O)C1CC=CCC1C(=O)O (centres undefined)
  A: 15 | B: -4 | C: 1.8 | D: 2% | E: nt

mol: Cc1cccc(N(CC(=O)NC2CCCC2)C(=O)CNC(=O)c2ccco2)c1C
  A: nt | B: -6 | C: -1.7 | D: nt | E: nt

mol: CCN(CC)S(=O)(=O)c1cc(NS(=O)(=O)c2ccc(Cl)c(C(=O)O)c2)ccc1C
  A: nt | B: -4 | C: 0.8 | D: 0% | E: nt

mol: CN1CCN(/C(=N\O)c2nonc2N)CC1
  A: 0 | B: -2 | C: -1.3 | D: -14% | E: -41

mol: CCOC(=O)c1sc2nc(CC(=O)OC)nc(NCc3ccco3)c2c1C
  A: -6 | B: nt | C: 6.6 | D: -7% | E: 2

mol: Cc1cccc(OCCCC(=O)O)c1
  A: 3 | B: -7 | C: 6.0 | D: -9% | E: -34

Single records (already shown):
`CCN(CC)S(=O)(=O)c1cc(NS(=O)(=O)c2ccc(Cl)c(C(=O)O)c2)ccc1C` reads Arbovirus inh: nt; Mtb betalactam: -4; RecA intein inh: 0.8; Mtb growth: 0%; YopH inh: nt
`Cc1cccc(OCCCC(=O)O)c1` reads Arbovirus inh: 3; Mtb betalactam: -7; RecA intein inh: 6.0; Mtb growth: -9%; YopH inh: -34
`O=C1CCCC(c2ccccc2)N1` (centres undefined) reads Arbovirus inh: -5; Mtb betalactam: -1; RecA intein inh: 2.6; Mtb growth: 0%; YopH inh: -29

Look-ups from the results shown.
Reading of CCOC(=O)C1CCCN(CC(=O)Nc2cc(C)cc(C)c2)C1 (centres undefined) in RecA intein inh: -3.8
Reading of COC(=O)c1c(-c2ccccc2)csc1NC(=O)C1CC=CCC1C(=O)O (centres undefined) in Mtb growth: 2%

Screening results (PubChem BioAssay)

Only part of the results is shown; the hit share may differ from the screen's.
